From PubChem BioAssay
Ecoli rRNA inh: inhibits bacterial ribosomal RNA function over humanized ribosomes. E. coli WT GFP vs humanized-ribosome RFP mutants, fluorescence, 24 h; active compounds read low; DMSO median 0, no signal -100. GFP signal change (wild-type ribosome), % (test concentration not listed). AID 720706. 350,000 tested, 1.6% active;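 active = significant combined selectivity score with lowered wild-type GFP, culture density cut under 30%, mutant RFP and density less affected; inactive = any of these conditions unmet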; also: one replicate is shown; some compounds called inactive have numbers as strong as hits
FGF22 binding: binders of recombinant human FGF22 by thermal shift | Q9HCT0 | SYPRO orange fluorescence; percent of sucrose octasulfate shift, DMSO zero | calls only at 9.99 µM | 340,000 tested, 1.5% active | AID 651658;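 active = melting point raised past a set limit in the mean and every replicate; three in four hits are not shown here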
Target sequence (Q9HCT0 whole entry, looked up): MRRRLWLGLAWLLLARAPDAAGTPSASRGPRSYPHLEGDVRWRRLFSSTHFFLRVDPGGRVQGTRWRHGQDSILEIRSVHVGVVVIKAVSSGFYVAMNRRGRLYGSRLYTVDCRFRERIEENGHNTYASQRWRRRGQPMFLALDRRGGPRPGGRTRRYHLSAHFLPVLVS
Ecoli rRNA inh OD600: further read-out of Ecoli rRNA inh, marked with its call; OD600 change, %; measured here: OD600 growth;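 optical density of the mix in the first replicate; 0 = DMSO median and -100 = no signal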
Ecoli rRNA inh RFP: also measured in Ecoli rRNA inh; calls as there; RFP signal change, %; measured here: RFP humanized mutant strains;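 first replicate; 0 = DMSO median and -100 = no signal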
An asterisk follows results filed as active; i = inactive. Only part of the results is shown. The share of hits here may be higher or lower than overall.

item	Ecoli rRNA inh RFP	Ecoli rRNA inh	Ecoli rRNA inh OD600	FGF22 binding	SMILES
1	-1.1	6	9	i	C[C@@H]1CN([C@@H](C)CO)C(=O)c2cc(C3=CCCCC3)cnc2O[C@@H]1CN(C)S(=O)(=O)c1cn(C)cn1
2	1.2	0	1	i	CC(C)CC#Cc1cnc2c(c1)C(=O)N([C@H](C)CO)C[C@H](C)[C@@H](CN(C)Cc1ccccn1)O2
3	3.1	-1	0	i	Cc1noc(C)c1S(=O)(=O)Nc1ccc2c(c1)C(=O)N([C@@H](C)CO)C[C@@H](C)[C@@H](CN(C)C(=O)NC1CCCCC1)OCCCC[C@@H](C)O2
4	-0.6	0	-3	i	CCCC(=O)Nc1ccc2c(c1)OC[C@@H](C)N(C(=O)c1ccncc1)C[C@H](C)[C@@H](OC)CN(C)C2=O
5	-0.9	-1	7	i	CN1CCN(C(=O)C[C@H]2C[C@@H]3c4cc(NC(=O)Nc5ccc(C(F)(F)F)cc5)ccc4O[C@@H]3[C@H](CO)O2)CC1
6	-1.1	3	4	i	CC(=O)N(C)C[C@H]1Oc2ncc(-c3cncnc3)cc2C(=O)N([C@@H](C)CO)C[C@@H]1C
7	34	-29	-40	i	CC(C)CC#Cc1ccc2c(c1)O[C@H](CN(C)Cc1ccccn1)[C@H](C)CN([C@@H](C)CO)S2(=O)=O
8	-2.2	4	1	i	Cn1cnc(S(=O)(=O)N2CCCCN3[C@@H](CO)[C@H](c4ccc(-c5ccccc5)cc4)[C@@H]3C2)c1
9	-1.1	3	3	i	C[C@@H]1CN([C@H](C)CO)S(=O)(=O)c2ccc(C#CC(C)(C)O)cc2O[C@@H]1CN(C)C(=O)CC1CC1
10	10	-3	-5	i	C[C@@H]1CN([C@H](C)CO)C(=O)c2cc(C#CCc3ccccc3)cnc2O[C@H]1CN(C)Cc1ccccc1
11	4.2	0	-8	i	CN(C)CC(=O)N1[C@H](CO)[C@@H](c2ccc(-c3ccccc3F)cc2)[C@@H]1C#N
12	2.6	-1	-1	i	C[C@@H]1CN([C@H](C)CO)C(=O)Cc2cc(NS(=O)(=O)c3ccc(Cl)cc3)ccc2O[C@@H]1CN(C)C(=O)Nc1cccc2ccccc12
13	0.3	5	4	i	CC(C)NC(=O)N(C)C[C@H]1Oc2ccc(NC(=O)CCCCCC(=O)Nc3ccccc3N)cc2CC(=O)N([C@H](C)CO)C[C@H]1C
14	-3.8	-5	-1	i	C[C@H](CO)N1C[C@H](C)[C@@H](CN(C)S(=O)(=O)c2cccs2)Oc2ccc(NC(=O)CCN3CCOCC3)cc2C1=O
15	1.9	5	19	i	COc1ccc(S(=O)(=O)Nc2ccc3c(c2)CC(=O)N([C@@H](C)CO)C[C@H](C)[C@H](CN(C)Cc2ccc(Oc4ccccc4)cc2)O3)cc1

Additional entries.
item	Ecoli rRNA inh RFP	Ecoli rRNA inh	Ecoli rRNA inh OD600	FGF22 binding	SMILES
16	0.4	1	2	i	C[C@@H]1CN([C@@H](C)CO)C(=O)c2cc(C#CC3CCCC3)cnc2O[C@H]1CN(C)C(=O)Cc1ccccn1
17	7.4	9	16	i	Nc1ncnc2c1ncn2[C@@H]1O[C@H](C(=O)N[C@@H](CCc2ccccc2)C(=O)N2CCN(C(=O)N3CCCCC3)CC2)[C@@H](O)[C@H]1O
18	-0.4	-4	-7	i	COc1ccc(NC(=O)N(C)C[C@@H]2Oc3ncc(-c4ccc(OC)cc4)cc3C(=O)N([C@H](C)CO)C[C@@H]2C)cc1
19	1.6	4	4	i	COc1cccc(NC(=O)N2[C@H](CO)[C@@H](c3ccccc3)[C@H]2CNC(C)C)c1
20	1.1	-6	-12	i	COCC(=O)N(C)C[C@@H]1Oc2cc(-c3ccc(F)cc3)ccc2S(=O)(=O)N([C@@H](C)CO)C[C@@H]1C
21	-2.7	6	11	i	COCC(=O)N(C)C[C@H]1Oc2cc(C#CC3CC3)ccc2S(=O)(=O)N([C@@H](C)CO)C[C@@H]1C
22	-1.1	2	-9	i	COc1ccc2c3c(n(C)c2c1)[C@@H](CO)N(C(=O)C1CCCC1)CC31CN(C)C1
23	3.8	-3	-14	i	CO[C@@H]1CN(C)C(=O)c2cc(NC(=O)C3CC3)ccc2OC[C@@H](C)N(Cc2cccc(F)c2)C[C@@H]1C
24	-3.8	-3	0	i	C[C@@H]1CCCCO[C@H](CN(C)Cc2ccccc2)[C@H](C)CN([C@H](C)CO)C(=O)c2cc(NC(=O)c3ccncc3)ccc2O1
25	-0.3	-3	-2	i	COc1ccccc1NC(=O)N1C[C@H](O)COC[C@@H]2O[C@H](CC(=O)NCCc3ccccc3)CC[C@H]21
26	-4.1	-3	9	i	CC(C)NC(=O)N[C@@H]1CC[C@@H](CCNS(=O)(=O)c2ccc(Cl)cc2)O[C@@H]1CO
27	1.3	0	-5	i	C/C=C/c1ccc2c(c1)O[C@H](CN(C)C(=O)c1ccc(F)cc1)[C@@H](C)CN([C@@H](C)CO)S2(=O)=O
28	3.3	8	0	i	O=C(N[C@H](Cc1ccccc1)C(=O)NCc1ccco1)[C@H]1O[C@@H](n2ccc(=O)[nH]c2=O)[C@H](O)[C@@H]1O
29	-0.7	0	5	i	COCC#Cc1cnc2c(c1)C(=O)N([C@@H](C)CO)C[C@@H](C)[C@@H](CN(C)C(=O)Nc1cccc(F)c1)O2
30	5.8	12	-13	i	O=C(CN1CCOCC1)N1CCCCN2[C@H](CO)[C@H](c3ccc(C#Cc4ccccc4)cc3)[C@@H]2C1

Seven entries from above, ordered by formula weight, lowest first.
item	Ecoli rRNA inh RFP	Ecoli rRNA inh	Ecoli rRNA inh OD600	FGF22 binding	SMILES
26	-4.1	-3	9	i	CC(C)NC(=O)N[C@@H]1CC[C@@H](CCNS(=O)(=O)c2ccc(Cl)cc2)O[C@@H]1CO
30	5.8	12	-13	i	O=C(CN1CCOCC1)N1CCCCN2[C@H](CO)[C@H](c3ccc(C#Cc4ccccc4)cc3)[C@@H]2C1
28	3.3	8	0	i	O=C(N[C@H](Cc1ccccc1)C(=O)NCc1ccco1)[C@H]1O[C@@H](n2ccc(=O)[nH]c2=O)[C@H](O)[C@@H]1O
27	1.3	0	-5	i	C/C=C/c1ccc2c(c1)O[C@H](CN(C)C(=O)c1ccc(F)cc1)[C@@H](C)CN([C@@H](C)CO)S2(=O)=O
20	1.1	-6	-12	i	COCC(=O)N(C)C[C@@H]1Oc2cc(-c3ccc(F)cc3)ccc2S(=O)(=O)N([C@@H](C)CO)C[C@@H]1C
25	-0.3	-3	-2	i	COc1ccccc1NC(=O)N1C[C@H](O)COC[C@@H]2O[C@H](CC(=O)NCCc3ccccc3)CC[C@H]21
24	-3.8	-3	0	i	C[C@@H]1CCCCO[C@H](CN(C)Cc2ccccc2)[C@H](C)CN([C@H](C)CO)C(=O)c2cc(NC(=O)c3ccncc3)ccc2O1

Further results
item	Ecoli rRNA inh RFP	Ecoli rRNA inh	Ecoli rRNA inh OD600	FGF22 binding	SMILES
31	-3.1	-3	-5	i	C[C@@H]1CN([C@@H](C)CO)C(=O)c2cccc(NS(=O)(=O)c3ccc(F)cc3)c2O[C@@H]1CN(C)C(=O)NC1CCCCC1
32	-1.8	-1	-5	i	COc1ccc2c3c([nH]c2c1)[C@@H](CO)N(C(=O)Nc1ccc(F)cc1)CC31CCN(S(=O)(=O)c2ccc(C)cc2)CC1
33	0.3	3	-2	i	C[C@@H]1CN([C@H](C)CO)S(=O)(=O)c2ccc(C#Cc3cccnc3)cc2O[C@H]1CN(C)C(=O)CN(C)C
34	0.2	1	2	i	CO[C@@H]1CN(C)C(=O)c2ccc(NC(=O)c3ccccc3)cc2OC[C@H](C)N(C)C[C@H]1C
35	0.8	-3	1	i	C[C@@H]1CN([C@@H](C)CO)C(=O)c2ccccc2-c2ccccc2CO[C@H]1CN(C)C(=O)Nc1cccc(F)c1
36	1.2	-1	-2	i	CN1C(=O)c2cc(NS(=O)(=O)c3ccc(Cl)cc3)ccc2OC[C@@H]2O[C@@H](CC(=O)O)CC[C@H]21
37	1.3	8	5	i	CC(C)C#Cc1ccc([C@H]2[C@H]3CN(CC4CC4)CCCCN3[C@H]2CO)cc1
38	0.2	-5	5	i	CN(C)CC(=O)N1[C@H](C#N)[C@@H](c2ccc(-c3ccccc3F)cc2)[C@@H]1CO
39	-14	-60	-72	i	N#Cc1cccc(-c2ccc([C@@H]3[C@@H](CO)N4CCCCN(C(=O)Nc5cccc(F)c5)C[C@H]34)cc2)c1
40	-3.7	1	1	i	Cc1ccc(S(=O)(=O)Nc2cccc3c2O[C@@H](CN(C)C(=O)Nc2c(C)noc2C)[C@@H](C)CN([C@@H](C)CO)C3=O)cc1
41	0.1	-48	-52	i	O=C(C[C@@H]1CC[C@H]2[C@@H](COC[C@H](O)CN2C(=O)Nc2cc(Cl)cc(Cl)c2)O1)N1CCCCC1
42	-0.4	3	13	i	COc1ccc(S(=O)(=O)N(C)C[C@H]2Oc3cc(C#CC4CCCC4)ccc3S(=O)(=O)N([C@H](C)CO)C[C@@H]2C)cc1
43	-1.3	1	-7	i	CN1C[C@@H]2[C@H](c3ccccc31)[C@H](CO)N2C(=O)c1ccccn1
44	1.8	0	7	i	O=C(C[C@@H]1CC[C@@H](NS(=O)(=O)c2ccc(F)cc2)[C@@H](CO)O1)NC1CCCCC1
45	1.4	0	-28	i	Cc1ccc(S(=O)(=O)N(C)C[C@@H]2Oc3ncc(-c4cccc(C(F)(F)F)c4)cc3C(=O)N([C@H](C)CO)C[C@@H]2C)cc1

More records.
item	Ecoli rRNA inh RFP	Ecoli rRNA inh	Ecoli rRNA inh OD600	FGF22 binding	SMILES
46	6.3	-3	-16	i	CC(C)CC#Cc1cnc2c(c1)C(=O)N([C@@H](C)CO)C[C@@H](C)[C@H](CN(C)C(=O)Nc1cccc(F)c1)O2
47	1.1	18	17	i	COCc1cc(N2CCNC[C@@H]2C)ccc1N1CCN(Cc2ccccc2)[C@H](C)C1
48	-1.3	2	0	i	CO[C@@H]1CN(C)C(=O)c2cc(NC(=O)CC(F)(F)F)ccc2OC[C@H](C)N(C(C)=O)C[C@@H]1C
49	-4.0	1	9	i	CC(C)NC(=O)N(C)C[C@H]1Oc2cc(C3=CCCC3)ccc2S(=O)(=O)N([C@H](C)CO)C[C@@H]1C
50	-0.6	-4	-9	i	C[C@@H]1CN([C@H](C)CO)C(=O)c2cc(N(C)C)ccc2O[C@@H]1CN(C)Cc1ccc(C(F)(F)F)cc1
51	-0.8	1	0	i	Cc1ccc(S(=O)(=O)Nc2cccc3c2O[C@@H](CN(C)Cc2ccncc2)[C@@H](C)CN([C@@H](C)CO)C3=O)cc1
52	-1.6	-1	-2	i	CCCNC(=O)[C@H]1[C@H](CO)[C@H]2Cn3c(ccc(-c4ccccc4)c3=O)[C@H]2N1C(=O)c1ccccc1F
53	-0.8	2	7	i	CCN1[C@H](C(=O)NCCN2CCCCC2)[C@@H](CO)[C@@H]2Cn3c(ccc(-c4ccc(OC)cc4)c3=O)[C@@H]21
54	-24	-62	-81	i	O=C(C[C@H]1CC[C@@H]2[C@H](COC[C@@H](O)CN2C(=O)Nc2ccc(C(F)(F)F)cc2)O1)NCC1CC1
55	1.6	2	5	i	COCC(=O)N1CCCCN2[C@@H](CO)[C@@H](c3ccc(-c4ccc(OC)cc4)cc3)[C@@H]2C1
56	2.5	3	-1	i	CC(C)(C)[S@@](=O)N1Cc2cc(C(=O)NCc3ccncc3)nc(-c3cccc(-c4ccc(C#N)cc4)c3)c2[C@H]1CCO
57	-1.3	2	-1	i	CCCN(C)C[C@H]1Oc2ncc(-c3cccnc3)cc2C(=O)N([C@H](C)CO)C[C@@H]1C
58	-1.6	1	6	i	CC(=O)N(C)C[C@H]1Oc2ncc(-c3cccnc3)cc2C(=O)N([C@@H](C)CO)C[C@@H]1C
59	-3.7	5	9	i	CNC[C@@H]1Oc2ncc(-c3ccccc3)cc2C(=O)N([C@H](C)CO)C[C@@H]1C
60	0.6	2	4	i	CO[C@@H]1CN(C)C(=O)c2cc(NS(C)(=O)=O)ccc2OC[C@@H](C)N(C(=O)C2CCCCC2)C[C@H]1C

Carrying on:
item	Ecoli rRNA inh RFP	Ecoli rRNA inh	Ecoli rRNA inh OD600	FGF22 binding	SMILES
61	28	-28	-52	i	OC[C@H]1[C@H](c2ccc(C#Cc3cccnc3)cc2)[C@@H]2CN(Cc3ccccc3F)CCCCN12
62	-2.4	2	1	i	CNC[C@@H]1Oc2c(NC(=O)Nc3c(C)noc3C)cccc2C(=O)N([C@@H](C)CO)C[C@H]1C
63	-0.1	4	6	i	C[C@@H]1CCCCO[C@@H](CN(C)C(=O)Cc2ccccc2)[C@@H](C)CN([C@H](C)CO)C(=O)c2cc(NC(=O)CCC(F)(F)F)ccc2O1
64	2.3	-3	15	i	CN1c2ccc(C3=CCCCC3)cc2[C@@H]2[C@@H](CCN2C(=O)Nc2ccc(F)cc2)[C@@H]1CO
65	0.8	0	4	i	CN1CCN(C(=O)[C@H]2[C@H](CO)[C@H]3Cn4c(cccc4=O)[C@@H]2N3S(=O)(=O)c2ccccc2F)CC1
66	-2.4	5	9	i	COc1ccc(NC(=O)Nc2ccc3c(c2)C(=O)N([C@H](C)CO)C[C@H](C)[C@@H](CN(C)Cc2ccccc2)O3)cc1
67	-0.5	-1	-2	i	C[C@H]1CN([C@@H](C)CO)C(=O)c2cccc(NC(=O)Nc3ccccc3)c2O[C@H]1CN(C)C(=O)Nc1ccc2c(c1)OCO2
